Compound activity from PubChem.
RE007 growth inh – less growth of the S. pombe RE007 Vpr strain; AID 651644; S. pombe RE007 Vpr strain, BacTiter-Glo ATP luminescence, 24 h; control for the full effect not named in the record; Potency, µM (top dose mostly 92.2 µM), inactives show top-dose activity change, negative = less growth; actives 0.21% (n = 360,000); active = well fitted falling curve with a large enough effect; inconclusive = small, poorly fitted or top-dose-only effect; inactive = no such curve, though single readings can be large or run the other way;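 note: % is set by controls: 0 for no effect and ±100 for the full control effect; nearly all actives have a fitted effect of over 50% in size; the assay follows cell death caused by Vpr and the record does not say whether a fall means rescue or toxicity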
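Fission yeast RE007 carrying one integrated HIV-1 vpr copy, seeded at OD 0.01 in PMG+AL medium with 23 nL pinned compound. Grown 24 h at 30 degrees; viability read by BacTiter-Glo luminescence after 5 min.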
SARS PLP yeast – blocks SARS-CoV papain-like protease in a yeast assay; S. cerevisiae expressing SARS-CoV PLpro, growth rescue; control for the full effect not named in the record; actives 0.19% (n = 330,000); Potency, µM (doses to about 32.9 µM), for inactives: at the top dose activity, positive = growth rescue; AID 485353; note: 0% is about no effect; nearly all actives have a fitted effect of over 55% in size; growth read by luminescence after 48 h
MARV entry inh – Marburg virus entry inhibition; Marburg virus pseudotyped entry inhibition, cell reporter; control for the full effect not named in the record; about a third of the inactives were read at about 46 µM; Potency, µM (titrated, usually from 37.8 µM), inactives show at the highest dose activity change, negative = inhibition, actives largely listed as inhibitors; actives 1.8% (n = 300,000); active = well fitted inhibition curve with a large enough effect; inconclusive = small, poorly fitted or top-dose-only effect, or effect the other way; inactive = flat fitted curve, though single readings scatter; tested in HEK293 cells; about a fifth of its hits are not listed in these tables; note: % is set by controls: 0 for no effect and ±100 for the full control effect; luciferase read-out
Cruzain noTriton – blocks cruzain activity in detergent-free assay; P25779; purified cruzain, Z-FR-AMC fluorescence, no detergent; Potency, µM, inactives show max response, negative = inhibition, most hits filed as inhibitors; actives 2.3% (n = 200,000); AID 1476; active = well fitted curve in the direction sought with a large enough effect; inconclusive = small, poorly fitted or top-dose-only effect, or another doubt; inactive = no such curve, though single readings can be large; an effect the other way counts as inactive or inconclusive;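 note: plate controls were enzyme without inhibitor for no effect and buffer without enzyme for full effect; nearly all actives have a fitted effect of over 40% in size; top concentration of the series not given in the record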
Target sequence (P25779 123-467 limits assumed): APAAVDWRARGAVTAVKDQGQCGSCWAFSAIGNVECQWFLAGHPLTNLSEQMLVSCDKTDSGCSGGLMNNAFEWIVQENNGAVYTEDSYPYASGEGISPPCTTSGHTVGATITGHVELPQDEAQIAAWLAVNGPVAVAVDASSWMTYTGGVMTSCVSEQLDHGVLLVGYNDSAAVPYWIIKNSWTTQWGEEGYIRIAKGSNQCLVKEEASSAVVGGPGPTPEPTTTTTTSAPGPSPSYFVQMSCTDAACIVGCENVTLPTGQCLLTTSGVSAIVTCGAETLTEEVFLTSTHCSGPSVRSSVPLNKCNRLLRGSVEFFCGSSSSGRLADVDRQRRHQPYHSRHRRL
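Purified cruzain at 1.5 nM, pre-incubated 15 min with compound at room temperature in 100 mM sodium acetate pH 5.5, 5 mM DTT, 0.00005% Triton X-100. Reaction started with 2 uM Z-FR-AMC; AMC fluorescence increase over 60 s gives rate.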
NS1 function inh – influenza NS1 inhibition; S. cerevisiae slowed by influenza A NS1, growth recovery by OD600; Potency, µM (highest dose often 46.1 µM), without a hit: top-dose activity, positive = more growth; actives 0.4% (n = 270,000); note: actives are rising curves; nearly all actives have a fitted effect of over 50% in size
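A cell-based growth assay was used: compounds that relieve NS1-induced slow growth of budding yeast raise OD600. Assay medium was yeast nitrogen base with ammonium sulphate and -URA supplement, pH 6.0, with 2% galactose.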
LASV entry inh – blocks Lassa virus binding to or entry into cells; Lassa virus pseudotype entry inhibition, cell reporter; control for the full effect not named in the record; Potency, µM (top dose mostly 37.9 µM), inactives show top-dose activity change, negative = inhibition, hits mostly inhibitors; AID 540256; actives 1.2% (n = 300,000); active means well fitted inhibition curve with a large enough effect; inconclusive means small, poorly fitted or top-dose-only effect, or effect the other way; inactive means flat fitted curve, though single readings scatter; tested in HEK293 cells; note: % is set by controls: 0 for no effect and ±100 for the full control effect; nearly all actives have a fitted effect of over 50% in size; luciferase read-out
Cruzain Triton – cruzain (T. cruzi) inhibition with detergent; P25779; purified cruzain, Z-FR-AMC fluorescence, 0.01% Triton; Potency, µM, without a hit: max response, negative = inhibition, actives largely listed as inhibitors; actives 0.43% (n = 200,000); AID 1478; active = well fitted curve in the direction sought with a large enough effect; inconclusive = small, poorly fitted or top-dose-only effect, or another doubt; inactive = no such curve, though single readings can be large; an effect the other way counts as inactive or inconclusive;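 note: plate controls were neutral wells for no effect and buffer without enzyme for full effect; nearly all actives have a fitted effect of over 40% in size; top concentration of the series not given in the record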
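Detergent-containing arm of a paired screen for aggregation-based inhibition: 0.01% Triton X-100 present. Cruzain at 1.5 nM cleaved 2 uM Z-FR-AMC at pH 5.5 with 5 mM DTT; AMC fluorescence gain over 60 s measured activity.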
2A StopGo – FMDV 2A StopGo reporter, luciferase signal; Potency, µM (top dose mostly 57.9 µM), inactives show top-dose signal change, negative = less light; actives 1.2% (n = 410,000); AID 1159524; human cells with a luciferase reporter of 2A StopGo recoding; control for the full effect not named in the record; active = well fitted falling curve with a large enough effect; inconclusive = small, poorly fitted or top-dose-only effect; inactive = no such curve, though single readings can be large or run the other way; tested in HEK293T cells; note: % is set by controls: 0 for no effect and ±100 for the full control effect; nearly all actives have a fitted effect of over 45% in size; luciferase light after 4 h
Starred values were filed as active, the others as inactive; ? = inconclusive; / = not tested or not shown; & = joins results of further samples; [ ] = another dose, or the depositor's remark. Unless noted, calls come from the whole dose curve; as a rule, active means well fitted rising curve with a large enough effect; inconclusive means small, poorly fitted or top-dose-only effect; inactive means no such curve, though single readings can be large or run the other way. Potency is the fitted concentration of half-maximal effect.

SMILES | Cruzain Triton | Cruzain noTriton | 2A StopGo | RE007 growth inh | LASV entry inh | MARV entry inh | SARS PLP yeast | NS1 function inh
COc1ccc(C)cc1NC(=O)CN(C)S(=O)(=O)c1ccc2c(c1)CC(C)N2C(C)=O (stereo not given) | / | / | -22.3% | 2.6% | / | / | -5.9% | 3.8%
COc1cccc(N/C=C/C(=O)c2ccc(Cl)cc2)c1 | -4.2% | -6.7% | -33.7% | -3.1% | ? | ? | -4.5% | -16.7%
COC(=O)[C@@]1(Cc2ccc(F)cc2)[C@H]2c3cc(C(=O)N(C)C)n(Cc4nc5ccccc5[nH]4)c3C[C@H]2CN1C(=O)c1ccccc1 | -6.2%&-6.4% | ? | ? | 4.8% | ? | -29.2% | 13.5% | 28.3%
COc1ccc(NCc2cccnc2)cc1 | / | / | 11.9% | -11.6% | 4.2%[46.1 µM] | -1.3%[46.1 µM] | 0.2% | 19.0%
CCOC(=O)N1CCN(C(=O)c2cc3c(ccc4ccccc43)oc2=O)CC1 | -4.3% | -18.3% | -15.5% | -15.7% | -12.2% | -3.6%[46.1 µM] | 1.2% | -9.8%
Cc1cc(C)cc(C(=O)N(Cc2ccco2)c2c(N)n(Cc3ccccc3)c(=O)[nH]c2=O)c1 | / | / | -22.8% | 32.2% | -3.9% | 0.2% | -2.9% | /
Cc1nc([N+](=O)[O-])cn1CC(O)c1ccc(F)cc1 (stereo not given) | / | / | 7.2% | -9.5% | 9.9% | 0.5%[46.1 µM] | -2.2% | 2.9%
CC(=O)Nn1c(C)nnc1-n1nc(C)cc1C | 5.6% | 5.9% | -7.7% | 6.4% | 12.6% | 7.4% | 1.5% | 2.6%
COc1ccc(CCNC(=O)CCn2c(=O)oc3ccccc32)cc1 | -3.9% | 1.3% | -21.9% | 0.7% | / | / | -2.5% | -9.8%
CC1CCC(NC(=O)CN2CCCN(Cc3ccc(F)cc3Cl)C2=O)CC1 (stereo not given) | 2.1% | 3.5% | ? | -9.3% | 10.0% | ? | -0.4% | -1.7%
CCCCNc1ccccc1C(=O)OCC(=O)Nc1ccc(S(N)(=O)=O)cc1 | -15.8% | ? | 0.0% | 8.0% | -7.1% | -14.1% | -7.7% | 1.9%
O=C(Nc1ccc2c(c1)OCCO2)c1c[nH]c(=O)n(-c2ccc(F)c(Cl)c2)c1=O | / | / | -1.5% | -8.8% | 0.0% | 4.2% | 1.9% | 13.0%
CC(C)Oc1ccc(CCNC(=O)CC2C(=O)NCCN2C)cc1 (stereo not given) | / | / | -4.4% | 3.8% | ? | -12.0%[46.1 µM] | -0.7% | 0.9%
O=C1NC(=O)N(c2ccccc2)C(=O)/C1=C\c1ccccc1[N+](=O)[O-] | / | / | ? | -5.3% | -3.3% | 1.8% | 2.5% | 3.7%
COc1ccccc1NS(=O)(=O)c1cc(NC(=O)CNC(=O)c2ccc(C)s2)ccc1Cl | -4.1% | -28.5% | 29.1% | -2.9% | ? | ? | 10.0% | 15.0%
COc1cc(OC)nc(Oc2ccccc2C=O)n1 | / | / | ? | 10.3% | -10.6%[46.1 µM] | ? | / | /
O=C(NCCc1ccc(Cl)cc1)c1ccc(CS(=O)(=O)Cc2ccc(Cl)cc2)o1 | -0.7% | -1.8% | 1.5% | / | 12.0%[46.1 µM] | / | / | /
O=C(NCCCc1nc2ccccc2[nH]1)c1ccc(F)cc1 | / | / | -12.8% | -8.9% | -2.6% | 3.8%[46.1 µM] | 1.4% | /
CCOC(=O)C1CCN(C(C(=O)NC2CCCCC2)c2ccc(OC)cc2)CC1 (stereo not given) | 6.4% | 2.6% | 26.0% | -8.6% | ? | 1.1% | 1.7% | 0.3%
COc1cccc(-c2cc(C(=O)Nc3ccn(Cc4ccc(C)cc4)n3)no2)c1 | -5.9% | -8.8% | ? | 9.2% | ? | 13.1%&13.1%[46.1 µM] | 1.7% | /

Not a retest: five of the compounds above.
SMILES | Cruzain Triton | Cruzain noTriton | 2A StopGo | RE007 growth inh | LASV entry inh | MARV entry inh | SARS PLP yeast | NS1 function inh
COc1cc(OC)nc(Oc2ccccc2C=O)n1 | / | / | ? | 10.3% | -10.6%[46.1 µM] | ? | / | /
O=C(NCCc1ccc(Cl)cc1)c1ccc(CS(=O)(=O)Cc2ccc(Cl)cc2)o1 | -0.7% | -1.8% | 1.5% | / | 12.0%[46.1 µM] | / | / | /
O=C(NCCCc1nc2ccccc2[nH]1)c1ccc(F)cc1 | / | / | -12.8% | -8.9% | -2.6% | 3.8%[46.1 µM] | 1.4% | /
CCOC(=O)C1CCN(C(C(=O)NC2CCCCC2)c2ccc(OC)cc2)CC1 (stereo not given) | 6.4% | 2.6% | 26.0% | -8.6% | ? | 1.1% | 1.7% | 0.3%
COc1cccc(-c2cc(C(=O)Nc3ccn(Cc4ccc(C)cc4)n3)no2)c1 | -5.9% | -8.8% | ? | 9.2% | ? | 13.1%&13.1%[46.1 µM] | 1.7% | /

Additional compounds:
SMILES | Cruzain Triton | Cruzain noTriton | 2A StopGo | RE007 growth inh | LASV entry inh | MARV entry inh | SARS PLP yeast | NS1 function inh
O=C(NC(=S)Nc1ccc2c(c1)OCO2)c1ccccc1 | -6.4% | -5.6% | 25.8% | -4.0% | ? | -24.3% | 4.8% | -3.4%
CC(SCc1ccccc1)C(=O)Nc1ccccc1-c1ccccc1 (stereo not given) | -6.2% | 7.3% | -11.0% | 33.0% | 21.2% | 8.2% | -12.9% | -12.0%
CC1(C)CC(O)CC(C)(C)N1CC(O)COCCOc1ccc(Br)cc1 (stereo not given) | 2.5% | -7.3% | -1.1% | -3.7% | 15.2% | -16.3% | 2.8% | 5.5%
CSc1nnc2c(n1)OC(c1ccc(C(=O)O)cc1)N(C(C)=O)c1ccccc1-2 (stereo not given) | -4.2% | -29.9% | -11.8% | -4.2% | / | / | -1.5% | 7.3%
Cc1ccccc1-c1ccc(=O)n(CC(=O)Nc2ccc(-n3cnnn3)cc2)n1 | / | / | -17.5% | 0.0% | -24.5% | 10.5%[46.1 µM] | 0.2% | ?
COc1ccc2nc(SCC(=O)NCc3ccc(S(N)(=O)=O)cc3)[nH]c2c1 | / | / | -11.6% | 23.6% | 14.6%[46.1 µM] | 0.4%[46.1 µM] | -0.4% | 6.7%
Cc1ccc(NC(=O)c2ccc(=O)[nH]c2)cc1S(=O)(=O)N1CCCCC1 | / | / | 4.0% | 0.2% | / | / | 0.0% | -1.8%
CCN1C(=O)Nc2cccc3cccc1c23 | / | / | 10.3% | 11.2% | ? | 11.9%[46.1 µM] | / | /
CC1=C(C(=O)OC2CCCCC2)C(c2ccc(O)cc2)NC(=O)N1 (stereo not given) | / | / | 9.3% | 3.0% | / | / | -1.7% | 28.8%
Cc1cccc(NC2=NCC(=O)N2CCc2ccccc2)c1 | 5.5% | 2.7% | -0.4% | -20.8% | 3.1% | -0.2%[46.1 µM] | 4.7% | 16.6%
COC(=O)CSc1nnc(-c2ccncc2)o1 | 4.7% | -0.3% | -11.9% | 1.9% | 6.4% | -3.3% | 0.7% | 3.9%
CSc1ccc(CCNC(=O)CCCn2nc(C)c3sc4ccccc4c3c2=O)cc1 | -5.7% | -3.6% | -17.9% | / | -14.0%[46.1 µM] | -17.6%[46.1 µM] | / | /
O=C(Nc1ccc(N2CCOCC2)cc1)C1CCCCN1S(=O)(=O)c1ccccc1 (stereo not given) | / | / | 49.0%[activator] | -7.3% | / | / | -2.6% | ?
CC1CN(C(=O)/C=C/c2ccc3c(c2)OCO3)CC(C)O1 (stereo not given) | -3.8% | -12.6% | 50.1% | 8.7% | 4.4% | 15.2% | -1.4% | 0.2%
Cc1ccc(NC(=O)C2CCCN(S(=O)(=O)c3ccc(-n4cnnn4)cc3)C2)cc1 (stereo not given) | / | / | -6.7% | 10.3% | / | -11.1%[46.1 µM] | 2.9% | 3.7%
CCc1ccc(NC(=O)CSc2nc(=O)n(Cc3ccco3)c3c2CCC3)cc1 | -9.5% | -5.6% | -25.1% | / | ? | / | / | /
COc1cccc(CN2CCCC(C(=O)c3ccc4c(c3)OCO4)C2)c1O (stereo not given) | / | / | -8.2% | -19.0% | / | / | -1.6% | -0.9%
CN(C)C(=O)C[n+]1ccc(/C=N/O)cc1 | 0.5% | -0.4% | -15.7% | 0.4% | -16.5% | 2.6%&2.6% | 7.2% | -0.8%
CCOc1cc(C2NC(=S)NC(C)=C2C(=O)Nc2ccc(OC)cc2)ccc1O (stereo not given) | -8.6% | -3.3% | -16.8% | 10.3% | -8.3% | 20.3% | -0.4% | 14.4%
O=C(O)c1cc2c(cc1NC(=O)c1ccccc1C(F)(F)F)OCCCO2 | / | / | -9.3% | 13.8% | ? | 21.4%[46.1 µM] | -3.8% | -0.9%
O=C1CCCC2=C1C(c1cccc(O)c1)c1c(ccc3ncccc13)N2 (stereo not given) | / | / | 9.0% | -15.3% | -2.9%[46.1 µM] | -1.8%[46.1 µM] | 0.3% | 1.5%
CCC1(CC)NC(=O)N(CC(=O)OCC(=O)NC(=O)c2ccc(Cl)cc2)C1=O | / | / | -3.0% | 10.6% | 10.8% | 20.5%[46.1 µM] | -2.5% | /
COC(=O)C1=C(C)N(CCc2ccccc2)C(=O)C1 | 2.4% | 3.4% | 7.3% | -8.1% | 12.6% | 1.7% | 2.3% | 5.1%
CCOc1ccc(S(=O)(=O)N2CCCC(C(=O)NCc3ccccn3)C2)cc1C (stereo not given) | / | / | 16.0% | -1.2% | 11.0%[46.1 µM] | -0.5%[46.1 µM] | -3.9% | -6.2%
Cc1cccc(-n2c(=O)[nH]c3c(C(N)=O)nc(C(C)C)nc32)c1 | -5.8% | -15.5% | / | -3.4% | 24.0% | -5.2% | -7.1% | 5.4%
CCN(C(=O)c1cc2cccc(OC)c2oc1=O)C1CCCCC1 | -11.6% | -5.4% | 2.1% | 8.0% | -7.8% | 0.7% | 19.5% | 1.0%
